Bioassay records as filed in PubChem BioAssay.
VDR inh = blocks the human vitamin D receptor | P11473 | VDR-SRC2-3 peptide fluorescence polarization, 2 h | Potency, µM, inactives show max response, negative = inhibition, most hits filed as inhibitors | 0.93% of 400,000 active | AID 504847; active means well fitted inhibition curve with a large enough effect; inconclusive means small, poorly fitted or top-dose-only effect, or another doubt; inactive means no such curve, though single readings can be large or run the other way; further: series mostly up to about 120 µM
Target sequence (P11473 whole entry, looked up): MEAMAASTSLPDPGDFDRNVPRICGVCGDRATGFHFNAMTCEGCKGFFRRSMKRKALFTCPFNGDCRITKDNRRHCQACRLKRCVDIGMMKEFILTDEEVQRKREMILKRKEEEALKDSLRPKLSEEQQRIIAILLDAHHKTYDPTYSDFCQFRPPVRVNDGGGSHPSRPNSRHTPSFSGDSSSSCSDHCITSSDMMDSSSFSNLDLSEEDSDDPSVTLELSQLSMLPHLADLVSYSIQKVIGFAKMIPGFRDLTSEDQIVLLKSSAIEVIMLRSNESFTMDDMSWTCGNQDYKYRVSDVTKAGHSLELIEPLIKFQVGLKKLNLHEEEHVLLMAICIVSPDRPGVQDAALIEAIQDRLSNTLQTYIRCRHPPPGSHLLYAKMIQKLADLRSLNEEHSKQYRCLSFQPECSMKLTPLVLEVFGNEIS
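Reagent solutions, kept cold and dark, are dispensed first; compounds are then pinned in at 23 nl, plates briefly spun, and incubated 2 h at ambient temperature. Inhibition of VDR–SRC2-3 peptide binding is read by fluorescence polarization.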
Numbers without * were called inactive; ? = inconclusive; & = joins results of further samples. On the % scale 0 is the no-effect control and ±100 the full control effect; potency means the concentration at half of the fitted maximal effect.

SMILES | VDR inh
COc1cc(OC)cc(C(=O)Nc2nc(CC(=O)NCc3ccccc3OC)cs2)c1 | -11.6%
CCn1c2ccccc2c2cc(NC(=O)Cc3ccc(S(=O)(=O)N4CCOCC4)s3)ccc21 | -11.3%
O=C(C[n+]1cc(-c2ccc(Cl)c(Cl)c2)n2c1CCC2)c1cccs1 | -5.6%
O=C(NCCCN1CCCC1)c1ccc2c(c1)N(Cc1ccccc1F)C(=O)c1ccccc1S2=O (stereo unspecified) | -2.9%
COc1cccc(C2C(C(=O)c3ccc(C)o3)=C(O)C(=O)N2c2cc(C)on2)c1 (stereo unspecified) | ?
COc1c(OC(C)=O)ccc(/C=C/c2ccc3cccc(OCc4ccccc4)c3n2)c1[N+](=O)[O-] | -8.2%
O=C(N/N=C/c1ccccc1F)c1cc2c(ccc3ccccc32)o1 | 3.5%
O=C(COC(=O)Cc1ccc(F)cc1)Nc1ccc(Cl)cn1 | 1.6%
CN(CC(=O)Nc1cccc(F)c1)C(=O)CCCc1c[nH]c2ccccc12 | 0.7%
O=C(NCc1cccnc1)Nc1cccc([N+](=O)[O-])c1 | -27.6%
O=S(=O)(c1ccccc1)N1CCCCC1CCc1ccccc1 (stereo unspecified) | -11.2%
CC(=O)c1c(C)[nH]c(C(=O)Nc2ccc(Cl)c(S(=O)(=O)N3CCOCC3)c2)c1C | -4.4%
CCN(Cc1nc2cc(Cl)ccc2c(=O)[nH]1)C(=O)c1cccc(NC(=O)c2cccs2)c1 | 5.0%
O=C(N[C@@H](Cc1ccccc1)C(=O)N[C@@H](Cc1ccccc1)C(=O)O)OCc1ccccc1 | 18.6%
COc1ccc(CCNC(=O)Cn2c(=O)n(-c3ccc(F)cc3)c(=O)c3sccc32)cc1OC | 12.7%
CCCC(=O)OCC(=O)Nc1ccc(N=Nc2ccccc2)cc1 | -4.2%
Cn1c(=O)cc(SCC(=O)NCC2CCCO2)c2ccccc21 (stereo unspecified) | -8.0%
COc1ccc(CC(=O)NCC2CCCN(Cc3ccccc3Cl)C2)cc1 (stereo unspecified) | -10.5%
CCOC(=O)c1cc2c(=O)n3ccccc3nc2n(Cc2ccccc2)c1=N | -2.4%
CN(Cc1ccon1)Cc1cn[nH]c1-c1ccc(-c2ccccc2)cc1 | -0.2%
CCOC(=O)C1CCN(c2c(NCCC(C)C)c(=O)c2=O)CC1 | 12.3%
Cc1csc2ncc(C(=O)N3CCc4ccccc43)c(=O)n12 | 0.5%
Cc1ccc(-n2c(=S)sc3c(=O)n(-c4ccc(F)cc4)c(SCC(=O)O)nc32)cc1C | 12.2%
C=CCC1(CC=C)CCCN1Cc1nc(COc2ccccc2)no1 | 25.3%
Cc1oc2c(CN3CCCC3)c(O)ccc2c(=O)c1-c1ccc(Br)cc1 | 24.6%
Next compounds:
SMILES | VDR inh
CN(Cc1nc(Cc2cccc(F)c2)no1)CC1CCOCC1 | -9.6%
CCC1CCCCN1CCCNC(=O)c1c(O)nc2c(C)cccn2c1=O (stereo unspecified) | 2.1%&5.0%
COc1cc(OC)c(C(=O)NC2CC(C)(C)NC(C)(C)C2)cc1OC | -2.5%
O=C(NCCc1ccc(Cl)cc1)C1CCN(S(=O)(=O)c2ccc3[nH]ccc3c2)CC1 | 2.5%
CCCNS(=O)(=O)c1ccc(CCC(=O)Nc2ccc3c(c2)OCCO3)cc1 | 15.2%
CCc1ccc(Cn2nnc3c(=O)[nH]c(C4CCCN(C(=O)c5cccc(Cl)c5)C4)nc32)cc1 (stereo unspecified) | -5.5%
O=C(Cn1c(=O)cnc2ccccc21)N1CCN(S(=O)(=O)c2cccc([N+](=O)[O-])c2)CC1 | -5.3%
Cc1ccccc1OC(=O)c1cc(-c2ccc3c(c2)OCCO3)on1 | -3.9%
CN(C)S(=O)(=O)c1ccc(Cl)c(NC(=O)CSc2nnnn2-c2ccc(O)cc2)c1 | -5.3%
CCOc1ccc(Br)cc1S(=O)(=O)Nc1cccnc1 | 9.7%
O=C(CCN1C(=O)c2ccccc2C1=O)Nn1cnnc1 | 2.6%
Cc1nn(-c2ccccc2)nc1C(=O)c1c(C)[nH]n(-c2ccccc2)c1=O | 6.9%
CC1CCCC(C)N1C(=O)CSc1nnc(NC(=O)Cc2cccs2)s1 (stereo unspecified) | 15.5%
CSc1cc(-c2ccccc2)n(Cc2ccc(Cl)cc2Cl)c(=O)c1C#N | -25.8%
O=C(NNC(=O)c1ccccc1F)c1ccc(S(=O)(=O)N2CCCCC2)cc1 | -1.6%
O=C(CNC(=O)c1ccccc1Cl)OC1CCOC1=O (stereo unspecified) | -2.0%
O=C(Nc1ccc(F)cc1)c1ccc2snnc2c1 | -4.8%
O=c1cc(N2CCOCC2)[nH]c(=O)n1-c1ccc(Cl)cc1 | -18.2%
CC(=O)Nc1ccc(NC(=O)CS(=O)(=O)c2cn(CC(=O)N3CCCCC3)c3ccccc23)cc1 | -0.5%
COc1ccc(C(C)(C)C)cc1NC(=O)c1[nH]c(C)c(C(C)=O)c1C | 6.2%
O=C(NCCS(=O)(=O)N1CCN(c2ccccc2)CC1)C1CC(=O)N(c2ccc(F)cc2)C1 (stereo unspecified) | -22.3%&1.3%
CCCCn1c(CN2CCN(c3cccc(Cl)c3)CC2)nc2c1c(=O)n(C)c(=O)n2C | -13.3%
COc1ccc(NC(=O)N2CCOCC2)cc1OC | -0.3%
CCn1c2ccccc2c2cnc(N=CN(C)C)c(C#N)c21 | 14.9%
CCOc1cc(C(=O)NC(C)CCc2ccccc2)cc(OCC)c1OCC (stereo unspecified) | 18.6%

Reprinted from above, 2 compounds:
SMILES | VDR inh
CCn1c2ccccc2c2cnc(N=CN(C)C)c(C#N)c21 | 14.9%
CCOc1cc(C(=O)NC(C)CCc2ccccc2)cc(OCC)c1OCC (stereo unspecified) | 18.6%

(cont.)
SMILES | VDR inh
NC(=O)c1ccc(NC(=O)C2CC(=O)N(c3ccc4c(c3)OCCO4)C2)cc1 (stereo unspecified) | -25.3%
CCNC(=O)N1CCNC(=O)C1CC(=O)OC (stereo unspecified) | 8.3%
O=c1[nH]cnc2c1[nH]c(=S)n2C1O[C@@H](CO)[C@H](O)[C@@H]1O (stereo partly specified) | -2.4%
O=C(O)C1(c2ccccc2)CCC(Nc2ccccc2)C1 (stereo unspecified) | -4.6%
Nc1cccc(S(=O)(=O)Nc2ccccc2)c1 | -5.5%
COc1cc(NC(=O)c2cn(C3CCCC3)c(=O)c3c2c2ccccc2n3C)cc(OC)c1OC | 0.0%
CCN(CC)c1ncnc2c1cnn2Cc1ccc(Cl)cc1 | -17.6%
Cc1ccc(C)c(OCc2nc(-c3cccnc3)no2)c1 | 8.4%
Cc1ccc(C)c(NC(=S)/C(=C(\[O-])c2ccc(OC(F)F)cc2)[n+]2ccccc2)c1 | -27.2%
O=C(CNS(=O)(=O)c1ccccc1)NNC(=O)C(Cl)Cl | 0.3%
Cn1c(SCc2ccc(F)cc2)nc2ccc(C(=O)NCc3ccc(Cl)cc3)cc21 | -9.4%
NC(=O)c1ccccc1NC(=O)CCCN1C(=O)CCC1=O | -6.2%
COc1ccc(NC(=O)CN(C)S(=O)(=O)c2ccc3[nH]c(=O)oc3c2)cc1 | -12.4%
CC(=O)N1c2ccc(S(=O)(=O)N3CCCCC3)cc2CC1C(=O)NCc1cccc(Cl)c1 (stereo unspecified) | -5.3%
CCOc1ccc(NC(=O)CSc2nnc(-c3ccccc3)n2N)cc1 | 13.7%
COc1ccccc1C(=O)N1CCCN(C(=O)c2ccccc2OC)CC1 | 9.9%
Cc1ccc2c(=O)c(C(=O)c3ccccc3)cn(CC(=O)Nc3ccc(C)c(Cl)c3)c2n1 | 0.2%
COc1ccc(-c2ccc(OC)c([C@H]3[C@H]4C=CC[C@@H](C)[C@@H]4C(=O)N3Cc3ccccc3)c2)cc1 | -3.5%
Cc1cc(Nc2ccccc2)n(-c2ccccc2)n1 | 5.6%
COc1ccccc1CN1CC(C(=O)NCCn2nc(C)cc2C)CCC1=O (stereo unspecified) | -3.0%
CCCOC(=O)c1ccc(NC(=O)c2cc(Cl)ccc2OC)cc1 | -27.2%
N#CC(=C(O)CN1CCN(c2ccccc2F)CC1)c1nc(-c2ccccc2)cs1 | 10.5%
Cc1c(CNC(=O)c2nn3c(c2Cl)NC(c2ccccc2)CC3C(F)(F)F)cnn1C (stereo unspecified) | -4.5%
Cc1ccc(C)c(Cn2c(C(=O)OC(C)C)cc3c2ccn3C)c1 | 2.6%
O=C1S/C(=C\c2ccc(N3CCOCC3)o2)C(=O)N1Cc1ccc(F)cc1 | ?

Of the compounds above, 4 contain two or more sulfur atoms:
SMILES | VDR inh
CCn1c2ccccc2c2cc(NC(=O)Cc3ccc(S(=O)(=O)N4CCOCC4)s3)ccc21 | -11.3%
Cc1ccc(-n2c(=S)sc3c(=O)n(-c4ccc(F)cc4)c(SCC(=O)O)nc32)cc1C | 12.2%
CN(C)S(=O)(=O)c1ccc(Cl)c(NC(=O)CSc2nnnn2-c2ccc(O)cc2)c1 | -5.3%
CC1CCCC(C)N1C(=O)CSc1nnc(NC(=O)Cc2cccs2)s1 (stereo unspecified) | 15.5%

Going on with the list:
SMILES | VDR inh
COC(=O)c1ccccc1C(=O)N1CCC(CCC(=O)NC2CC2)CC1 | -9.5%
COc1ccc(Cl)cc1S(=O)(=O)Nc1noc2ccccc12 | 1.9%
O=C(O)COc1c(-c2ccc(Cl)cc2)oc2ccccc2c1=O | -24.1%
CN1C(=O)[C@H]2[C@@H](/C=C/c3ccccc3)N3C(=O)CN(Cc4ccccn4)C(=O)[C@@]3(C)[C@H]2C1=O | -6.2%
COc1cccc(C(=O)Nc2cc(C(=O)NCc3ccc(C)cc3)ccc2N2CCC3(CC2)CC(c2ccccc2)=NO3)c1 | -7.6%
Cc1nc(N)c(C#N)c(-c2ccc3c(c2)OCO3)c1C | -15.6%
COc1cccc(OC)c1C(=O)Nc1cc(Cl)ccc1N1CCOCC1 | 18.0%
COc1cccc(/C=N/NC(=O)c2[nH]c(C)c(C(=O)N/N=C/c3cccc(OC)c3O)c2C)c1O | -19.6%
COC(=O)[C@]1(CC(C)C)N[C@H](c2ccc(-c3ccc(F)cc3)c(OC)c2)[C@@H]2C(=O)N(C)C(=O)[C@@H]21 | -26.7%
Cc1cc(C)n2nc(CC(=O)NC3CCCCCCC3)nc2n1 | 9.5%
COC(=O)c1ccc(NC(=O)Cc2coc3cc(C)ccc23)cc1 | 24.9%
O=C(CCc1ccc(O)c(O)c1)N/N=C/c1ccc2c(c1)OCO2 | 3.4%
CC(Oc1ccc(Cl)cc1Cl)C(=O)N(C)c1ccccc1 (stereo unspecified) | -16.8%
Fc1ccc(-n2cc(CNCCc3ccncc3)c(-c3ccccc3Cl)n2)cc1 | -1.9%
CCN(CC)c1ccc(/C=N/n2c(C)nc3ccccc3c2=O)cc1 | -16.2%
C#CCn1c(=NC(=O)c2ccc(Br)s2)sc2cc(NC(C)=O)ccc21 | -25.6%
COc1ccc(CNC(=O)C2CCCN(S(=O)(=O)c3ccc(-n4cnnn4)cc3)C2)cc1 (stereo unspecified) | -8.7%
Cc1nn(Cc2cccc(C(=O)NC3CCCCC3)c2)c(C)c1Cl | -13.9%
COc1ccccc1/C=N/OCc1cc(C(C)=O)ccc1OC | 4.7%
CC1CCN(S(=O)(=O)c2ccc3c(c2)c(=O)c(C(=O)NCc2cccs2)cn3C)CC1 | -5.3%
CC(=O)N1c2ccccc2C(=O)C1N1CCN(c2cccc(Cl)c2)CC1 (stereo unspecified) | 8.3%
Cn1c(CNC(=O)CSc2n[nH]c(-c3ccccc3)n2)nc2ccccc21 | 10.1%
Cc1cccc(NC(=O)c2ccccc2-c2ccccc2)c1 | 11.7%
COCCCN1C(=O)c2[nH]nc(-c3ccccc3O)c2C1c1ccc(OC)cc1 (stereo unspecified) | -1.2%
COc1ccc(C(=O)CCC(=O)Nc2ccc(N3CCN(C)CC3)cc2)cc1OC | 2.5%

Six entries from above in a different format:
| mol | VDR inh |
| --- | --- |
| O=C(O)COc1c(-c2ccc(Cl)cc2)oc2ccccc2c1=O | -24.1% |
| COc1ccccc1/C=N/OCc1cc(C(C)=O)ccc1OC | 4.7% |
| Cn1c(CNC(=O)CSc2n[nH]c(-c3ccccc3)n2)nc2ccccc21 | 10.1% |
| COC(=O)c1ccccc1C(=O)N1CCC(CCC(=O)NC2CC2)CC1 | -9.5% |
| O=C(CCc1ccc(O)c(O)c1)N/N=C/c1ccc2c(c1)OCO2 | 3.4% |
| CN1C(=O)[C@H]2[C@@H](/C=C/c3ccccc3)N3C(=O)CN(Cc4ccccn4)C(=O)[C@@]3(C)[C@H]2C1=O | -6.2% |

New compounds follow
SMILES | VDR inh
COc1cccc(NC(=O)CN(C)C(=O)c2c(-c3c(F)cccc3Cl)noc2C)c1 | 8.7%
O=C(NCCCN1CCOCC1)C1CCN(S(=O)(=O)c2cccc(C(F)(F)F)c2)CC1 | -13.4%
Cc1oc(-c2ccccc2Cl)nc1CS(=O)(=O)CC(=O)NC1CCCC1 | 6.4%
O=C(C[C@H]1C[C@H](C(=O)N2CCOCC2)[C@@]2(CCC3CCCC3)c3[nH]c4ccc(Cl)cc4c3CCN2C1=O)NCCc1ccccn1 | -12.0%
COc1cccc(CNC(=O)CSCc2cnn(-c3ccccc3)c2-n2cccc2)c1OC | 2.5%
Cc1cc(C)c(C)c(S(=O)(=O)N[C@@H](C)C(=O)OCc2cc(=O)n3cc(Br)ccc3n2)c1C | 9.8%
Cc1nnsc1C(=O)NNC(=O)Nc1ccccc1 | -5.0%
CC(NC(=O)c1cccc(NC(=O)c2nsc3ccccc23)c1)c1ccccc1 (stereo unspecified) | 2.1%
COc1ccc(C(=O)N2CCCN(C)CC2)cc1S(=O)(=O)N(C)Cc1ccccc1 | 4.2%
Cc1ccccc1CNC(=O)c1ccc(CN2CC(=O)N3CCCCC3C2=O)cc1 (stereo unspecified) | -6.8%
COc1ccc(C2/C(=C(/O)c3ccc4c(c3)CC(C)O4)C(=O)C(=O)N2CCCN2CCOCC2)cc1 (stereo unspecified) | 2.1%
NC(=O)c1nsnc1-c1ccccc1O | 6.9%
C=CC(C)(C)c1c(O)c(CC=C(C)C)c(O)c2c(=O)c3ccc(O)c(O)c3oc12 | 9.1%

The list is partial. The share of hits here may be higher or lower than overall.
